# Assay outcomes as filed in PubChem.
# PINK1 modulator – modulators of PINK1 expression; PINK1 immunofluorescence, high-content cytometry, 24 h; Potency, µM (series often up to 76.6 µM), for inactives: at the top dose activation (PINK1 increase), most hits filed as activators; 410,000 compounds, 0.2% hits; active = well fitted activation curve with a large enough effect; inconclusive = small, poorly fitted or top-dose-only effect; inactive = flat fitted curve, though single readings scatter; cell line not stated here;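 note: potency is the fitted concentration of half-maximal effect; % of control where 0% means no effect; nearly all actives have a fitted effect of over 65% in size; a mitochondrial uncoupler was the plate control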
#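 Readout is PINK1 immunofluorescence, quantified alongside mitochondrial, cell and nuclear markers by laser-scanning microplate cytometry. Cells from a stable line were exposed to compound titrations (5 concentrations) for 24 hours, with CCCP controls.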
# CtBP-E1A inh – blocks the CtBP interaction with E1A | AlphaScreen GST-E1A/His-CtBP binding, 1536-well; hits give low values; control for the full effect not named in the record | activity change, % (test concentration not listed) | 340,000 compounds, 0.49% hits; in the data active means activity change below about -65%; inconclusive means about -30% to -65%; inactive means above about -30%; note: % is set by controls: 0 for no effect and ±100 for the full control effect
#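 Steps: dispense buffer (Tris pH 8.0, NaCl 300 mM, TCEP 1 mM, BSA, Tween 20); add 5X protein mix (GST-E1A, His-CtBP, 125 nM each); pin 23 nL compound; 2 h at 37 °C, dark; add 5X beads (50 ug/mL); 1 h; read.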
# Six1-Eya2 inh – Six1/Eya2 interaction inhibition. AlphaScreen GST-Six1/His-Eya2 binding, biochemical; hits give low values; control for the full effect not named in the record. 360,000 compounds, 0.56% hits. activity change, % (no concentration beside the values). AID 651725; in the data active = activity change below about -65%; inconclusive = about -30% to -65%; inactive = above about -30%; note: % is set by controls: 0 for no effect and ±100 for the full control effect
#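 Compounds are tested against tagged Six1 and Eya2 proteins bridged by glutathione donor and nickel acceptor beads; after a one-hour incubation at 37 °C without light, AlphaScreen emission is recorded.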
# Sfp inh – Sfp phosphopantetheinyl transferase inhibition. Q9F4F7. Biochemical Sfp PPTase activity, qHTS. Potency, µM, for inactives: max response, negative = inhibition, actives largely listed as inhibitors. 310,000 compounds, 3.5% hits; active = well fitted inhibition curve with a large enough effect; inconclusive = small, poorly fitted or top-dose-only effect, or another doubt; inactive = no such curve, though single readings can be large or run the other way;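 note: the enzyme is Sfp with the accession as filed and its product quenches rhodamine fluorescence; potency is the fitted concentration of half-maximal effect; 0% = enzyme reaction without inhibitor and -100% = no enzyme wells; top concentration of the series not given in the record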
#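 Buffer: 50 mM Hepes-Na pH 7.6, 10 mM MgCl2, 0.01% Nonidet P-40, 0.01% BSA. Enzyme 15 nM, pre-exposed to compound 15 min; substrates then added and fluorescence change tracked over 30 min.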
# D2 agonist – agonists of human D2 dopamine receptor (beta-arrestin). P14416. DiscoveRx PathHunter D2 beta-arrestin, luminescence, 90 min; 100% = 57 uM dopamine signal. activation, % (test concentration not listed). 360,000 compounds, 0.084% hits. AID 624465; in the data active = activation above about 40%; inconclusive = about 15% to 40%; inactive = below about 15%; note: compound concentration not given in the record; the text of the record calls up to 30% inactive
#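 DiscoveRx PathHunter D2 beta-arrestin cells (2,100/well) attached overnight, then compound-stimulated 90 min at 37 C in HBSS/10 mM HEPES/0.1% Tween-20 buffer; beta-galactosidase complementation read by luminescence after 1 h at ambient temperature. Dopamine 57 uM final (EC100) as control.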
# TRPV1 potentiator – potentiators of human vanilloid receptor 1 (TRPV1); Q8NER1; TRPV1-expressing cells, Fluo-8 calcium influx, capsaicin EC20 potentiation; host cell line not named in the record; control for the full effect not named in the record; potentiation, % at 8.33 µM; 320,000 compounds, 0.02% hits; AID 540277; active means potentiation above 80%; inconclusive means 30% to 80%; inactive means below 30%; note: 0% is about no effect
# Target sequence (Q8NER1 whole entry, looked up): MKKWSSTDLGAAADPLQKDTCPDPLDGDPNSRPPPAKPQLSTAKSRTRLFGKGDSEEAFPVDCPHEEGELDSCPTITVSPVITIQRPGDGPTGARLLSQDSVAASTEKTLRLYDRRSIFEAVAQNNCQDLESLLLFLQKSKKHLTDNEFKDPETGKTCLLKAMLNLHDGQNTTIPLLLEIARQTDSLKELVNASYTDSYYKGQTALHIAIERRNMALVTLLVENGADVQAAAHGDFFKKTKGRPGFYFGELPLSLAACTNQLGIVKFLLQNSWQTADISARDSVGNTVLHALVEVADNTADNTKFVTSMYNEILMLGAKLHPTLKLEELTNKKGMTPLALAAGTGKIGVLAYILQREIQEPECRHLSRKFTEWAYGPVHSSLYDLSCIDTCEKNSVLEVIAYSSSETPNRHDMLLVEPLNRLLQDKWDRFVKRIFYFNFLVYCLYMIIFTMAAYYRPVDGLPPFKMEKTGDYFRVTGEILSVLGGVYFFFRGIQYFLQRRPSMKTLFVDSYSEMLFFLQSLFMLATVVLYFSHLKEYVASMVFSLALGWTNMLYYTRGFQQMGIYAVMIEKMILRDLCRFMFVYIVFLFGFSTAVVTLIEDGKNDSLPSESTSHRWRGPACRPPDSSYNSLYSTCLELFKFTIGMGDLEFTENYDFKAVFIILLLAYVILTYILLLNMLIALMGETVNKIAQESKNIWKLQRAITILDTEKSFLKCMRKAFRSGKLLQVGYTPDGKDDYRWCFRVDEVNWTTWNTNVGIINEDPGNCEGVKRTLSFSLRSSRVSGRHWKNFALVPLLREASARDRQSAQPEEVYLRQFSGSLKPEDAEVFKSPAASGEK
#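 TRPV1-expressing cells were cultured overnight at 35.5C and loaded with Fluo-8 calcium dye for 40 to 90 min at room temperature. After a 10 s baseline, compound was added and calcium influx was read kinetically for 3 min (ex 480/em 520 nm).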
# D2 potentiator – positive allosteric modulators of human D2 dopamine receptor. AID 624464. 360,000 compounds, 0.23% hits. P14416. potentiation, % (concentration not given with the values). DiscoveRx D2 beta-arrestin cells, luminescence, 90 min; 100% = 57 uM dopamine signal; active = potentiation of 50% or more; inconclusive = 30% to 50%; inactive = 30% or less;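 note: tested on top of an EC20 dose of dopamine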
#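 D2 cells co-treated with compound plus 50 nM dopamine (EC20) for 90 min at 37 deg C to detect potentiation. Beta-arrestin recruitment was read as enzyme-fragment luminescence after 1 h at ambient temperature. Full response was set by 57 uM dopamine.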
# * hit, by the source's call; ? = inconclusive; · = not tested or not shown; [ ] = dose if it differs, or a comment. Rows were taken by chance, and some 3.7% of all compounds hit somewhere here.
SMILES,PINK1 modulator,CtBP-E1A inh,Six1-Eya2 inh,Sfp inh,D2 agonist,TRPV1 potentiator,D2 potentiator
O=C(CCCC(=O)N(CC(=O)NC1CCCCC1)Cc1ccc2c(c1)OCO2)Nc1ccccn1,-0.9%,-1,-3,7%,-3.0,8,0
Nc1nc(Cn2nnc(-c3ccccc3F)n2)nc(N2CCOCC2)n1,-1.0%,-1,3,3%,-2.0,3,-6
CCOC(=O)c1ccc2c(c1)nc(C)n2CC,-0.9%,0,3,·,4.9,·,-7
C=CCSc1nnc(CNC(=O)c2ccccc2C)n1C(C)C,-0.9%,10,20,10%,-3.9,3,2
CCN1C(=O)/C(=C/c2cnn(CC)c2C)SC1=S,12%,2,11,4%,-0.1,-2,-5
Cc1ccc(NC(=O)CC(=O)c2ccccc2)cc1C,-0.8%,1,2,9%,-4.5,-2,-16
COc1ccc2[nH]c(C)c(C(=O)CN(C)C)c2c1,0.0%,9,-1,-12%,-0.6,4,-6
C#CCOCCOCCOCCNc1nc(N2CCN(C(=O)[C@H](C(C)C)n3cc(CCO)nn3)CC2)nc(N2CCN(C(=O)[C@H]([C@@H](C)CC)n3cc(CCC(=O)O)nn3)CC2)n1,-0.2%,5,6,·,-2.4,·,-9
COc1ccc(Nc2nc(-c3ccccc3)nc3ccccc23)cc1,?,23,16,3%,10,-12,0
COc1ccccc1C(CNC(=O)c1ccco1)N1CCCC1 (stereo not drawn),-0.5%,·,3,·,-5.0,5,-10
COc1cc(OC)cc(-n2nnnc2SCC(=O)NCc2ccc3c(c2)OCO3)c1,2.3%[38.3 µM],0,-7,-9%,-0.7,-17,-12
COc1ccc(N2CCN(C(=O)c3ccccc3NC(=O)C3=C(C)OCCS3)CC2)cc1,0.2%,-12,-5,7%,-6.9,-6,-12
CNCc1c(C)nn(-c2ccccc2)c1C,2.8%,1,-2,-8%,-0.9,27,-1
COc1ccc(CNC(=S)N/N=C/c2ccc(OC)c(OC)c2)cc1,-1.6%,2,-1,-2%,-2.1,13,1
Cn1c(-c2ccccc2)cnc1SCC(N)=O,-1.2%,2,-2,10%,-0.3,-4,-1
Cc1cn(C(=O)c2ccccc2)c(=S)n1-c1ccc(Br)cc1,-23%[38.3 µM],8,6,-4%,-2.3,-3,-9
Cc1ccc(NS(=O)(=O)c2c(C)[nH]c(C)c2C(=O)N2CCCCC2)cc1Cl,0.6%,2,-3,12%,-2.9,2,6
CCOc1ccc(NS(=O)(=O)c2ccc(C(=O)NCC(c3ccc(OC)cc3)N3CCCC3)cc2)cc1 (stereo not drawn),3.6%,-2,-10,·,-5.8,11,-19
Cc1[nH]c(=O)[nH]c(=O)c1/C=N/NC(=O)CCNC(=O)OC(C)(C)C,0.5%,?,-11,-17%,-5.3,4,-14
Cc1nnc2c(NCC(C)c3ccccc3)nc3ccccc3n12 (stereo not drawn),-0.4%,4,2,3%,7.6,-13,18

# The closing 5 entries of the part before lead into the next.
SMILES,PINK1 modulator,CtBP-E1A inh,Six1-Eya2 inh,Sfp inh,D2 agonist,TRPV1 potentiator,D2 potentiator
Cc1cn(C(=O)c2ccccc2)c(=S)n1-c1ccc(Br)cc1,-23%[38.3 µM],8,6,-4%,-2.3,-3,-9
Cc1ccc(NS(=O)(=O)c2c(C)[nH]c(C)c2C(=O)N2CCCCC2)cc1Cl,0.6%,2,-3,12%,-2.9,2,6
CCOc1ccc(NS(=O)(=O)c2ccc(C(=O)NCC(c3ccc(OC)cc3)N3CCCC3)cc2)cc1 (stereo not drawn),3.6%,-2,-10,·,-5.8,11,-19
Cc1[nH]c(=O)[nH]c(=O)c1/C=N/NC(=O)CCNC(=O)OC(C)(C)C,0.5%,?,-11,-17%,-5.3,4,-14
Cc1nnc2c(NCC(C)c3ccccc3)nc3ccccc3n12 (stereo not drawn),-0.4%,4,2,3%,7.6,-13,18
O=C(COc1ccccc1/C=C\c1[nH]c(=O)[nH]c(=O)c1[N+](=O)[O-])Nc1ccccc1,-0.2%,?,?,-17%,-2.9,-3,1
O=C(NNC(=O)c1ccc(Cl)s1)c1csc(N2CCOCC2)n1,-1.3%,-6,-13,·,-5.9,-6,-7
O=C(COC(=O)c1ccc(NS(=O)(=O)c2ccc3c(c2)OCCO3)cc1)NCC1CCCO1 (stereo not drawn),-5.3%,3,3,-12%,-2.4,3,-2
CCn1nnnc1-c1ccc(OC)c(S(=O)(=O)Nc2ccc(C(=O)OC)cc2)c1,·,14,7,7%,0.0,5,-9
CC1CCCC(C)N1/N=C/c1ccc(C(=O)O)cc1 (stereo not drawn),-1.6%,-7,9,9%,0.1,12,1
Nc1ccc(C(=O)N2CCN(S(=O)(=O)/C=C/c3ccccc3)CC2)cc1[N+](=O)[O-],0.0%,-2,-5,·,4.1,6,3
Cc1c(C(=O)NNC(=S)Nc2ccc(S(N)(=O)=O)cc2)oc2ccccc12,1.7%,-17,-10,22%,-6.8,6,-8
COC(=O)c1cc(NS(=O)(=O)c2ccc(C(C)C)cc2)ccc1N1CCOCC1,1.6%,14,4,9%,1.8,26,-4
Cc1ccccc1C(=O)NCC(=O)c1ccccc1,-0.1%,·,-2,·,-8.4,·,-1
CC(C)C[C@@H](CNCC(=O)[C@H](Cc1ccccc1)NC(=O)c1[nH]cnc1C(=O)N[C@H](CN)CC(C)C)NC(=O)c1nc[nH]c1C(=O)N[C@@H](CC(=O)O)C(=O)O,1.4%,-18,-22,·,-2.6,·,-5
Nc1ccn(C2OC(CCl)C(O)C2O)c(=O)n1 (stereo not drawn),1.4%,3,3,·,-2.7,·,-2
CCN1CCN(Cc2c(O)ccc3c2O/C(=C\C=C\c2ccccc2)C3=O)CC1,7.7%,-9,-3,-7%,-0.9,11,-29
Cc1cc(C)cc(NC(=O)NC2CCN(CC(=O)Nc3cccc(Cl)c3C)CC2)c1,10%,7,5,17%,-0.8,-9,-5
CCCS(=O)(=O)NCCc1csc(-c2ccc(OC)c(OC)c2)n1,1.8%,-19,-8,10%,-1.5,7,5
N#CCC(=O)NNC(=S)NC(=O)C(c1ccccc1)c1ccccc1,2.7%,-16,-29,6%,-4.1,7,-9
COCCOC(=O)C1=C(C)NC(=O)NC1c1ccco1 (stereo not drawn),2.7%,2,-2,-1%,11,24,0
CCOC(=O)c1cc[nH]c1C,2.2%,1,7,13%,-4.0,7,-1
COc1cccc(-c2nc(NCc3cccnc3)c3ccccc3n2)c1O,?,6,-6,-8%,-1.8,13,9
O=C(NCCCN1CCCCCC1)C1CCCN(S(=O)(=O)c2cccc3nsnc23)C1 (stereo not drawn),1.5%,2,-1,-3%,6.8,4,-5
CCn1c(CNC(=O)c2ccccc2F)cc2cc(C)ccc21,8.0%,-4,0,10%,-2.8,-1,-6
COc1ccc(CC(=O)Nc2ccc3c(c2)C(=O)N(CCC(=O)O)C3=O)cc1,1.7%,·,0,0%,6.2,-2,-2
COc1ccc(CCN2CC(C(=O)O)CC2=O)cc1OC (stereo not drawn),-0.2%,-1,1,7%,-3.9,-4,-9
COc1ccc(NC(=O)Nc2nnc(-c3ccccc3SCc3ccccc3)s2)cc1,9.7%,1,-5,-13%,1.0,3,26
COCCNC(=O)C1(C)CCCN(C(=O)c2ccc3c(c2)CCO3)C1 (stereo not drawn),-0.5%,-19,9,·,4.8,·,-6
CCS(=O)(=O)Nc1ccc(Cc2ccncc2)cc1,-1.1%,10,7,-6%,-1.0,14,-1
CCc1ccc2oc(-c3cc(N)ccc3O)nc2c1,-0.4%,-2,-20,-16%,-1.0,1,-8
O/N=C(/c1ccccc1)c1cc2cc(Br)cc(Br)c2o1,5.1%,-25,11,-1%,-0.4,15,2
CCOC(=O)c1ccc(N2C(=O)CC(NNC(=O)c3ccc(Br)s3)C2=O)cc1 (stereo not drawn),4.6%,0,-2,8%,-2.5,17,-6
O=S1(=O)CC(O)C(Nc2ccccc2)C1 (stereo not drawn),0.9%,-7,5,9%,-1.1,-8,-8
Cc1cccc(N(CC(=O)NC(C)(C)C)C(=O)CS(=O)CC(=O)Nc2ccc3c(c2)OCO3)c1 (stereo not drawn),3.5%,·,3,2%,-1.8,-3,0
O=C(NCc1cccs1)c1cc2c(s1)CCCC2,-1.9%,6,1,7%,-3.2,·,-1
O=[N+]([O-])c1cc(C(F)(F)F)ccc1NCCCCNS(=O)(=O)c1ccc(Cl)cc1,?,19,-8,-1%,-2.2,-18,-9
CCS(=O)(=O)NC(=O)C1(C)CCN1C(=O)Cc1ccc(Cl)cc1Cl (stereo not drawn),-0.7%,12,6,·,-2.9,·,-4
CS(=O)(=O)NCc1nnc(SCc2ccccc2C(F)(F)F)o1,·,-6,0,11%,1.1,-4,-9
N#Cc1c2c(c(NCCOCCO)n3c1nc1ccccc13)CCCC2,1.3%,15,-12,-6%,-7.6,5,-4
COCCCNC(=O)[C@@H](Cc1ccccc1)NC(=O)CC[C@H]1O[C@@H](n2ccc(=O)[nH]c2=O)[C@H](O)[C@@H]1O,0.4%,-14,15,·,-3.2,·,-7
CC(=O)Nc1cccc(-n2nnc(SCC(=O)c3ccccc3)n2)c1,-0.2%,·,-10,10%,0.6,?,-30
O=C(NCCCOc1cccc(CN2CCCCC2)c1)c1ccc(Cl)c(Cl)c1,8.6%,-3,4,-5%,2.6,2,-19
Cc1csc2ncc(C(=O)Nc3ccccc3F)c(=O)n12,1.9%,-2,8,13%,-6.7,3,-6
Cc1ccc(CNC(=O)CCc2nnc3ccc(NCCCN4CCCC4=O)nn23)cc1,2.1%,·,-5,9%,-3.4,1,1
COc1cccc(C(=O)c2ccccc2C(=O)O)c1,0.9%,7,-1,·,-2.1,·,-2
Cc1ccc(S(=O)(=O)N2CCN(S(=O)(=O)N3CCC(C)CC3)CC2)cc1C,10%,3,-6,6%,-2.2,-3,-4
CC(C)C(=O)Nc1cccc(NC(=O)c2cccnc2)c1,-1.9%,4,4,-5%,-1.1,-21,-16
COc1ccc(Cl)cc1NS(=O)(=O)c1ccc(OC)c(OC)c1,-1.8%,-2,0,12%,-1.0,-8,-6
O=C(CCN1C(=O)c2ccccc2C1=O)Nc1ccc(-c2nc3ccccc3o2)cc1,-0.5%,13,7,-1%,-2.6,18,-10
O=C1CC(NN2CCCCC2)C(=O)N1c1ccccc1 (stereo not drawn),1.6%,7,-16,11%,-1.6,-4,-7
COc1ccc(C(=O)NC(C)Cn2nc(C)cc2C)cc1OC1CCN(C(C)=O)CC1 (stereo not drawn),-1.7%,-1,2,12%,-3.2,1,10
